From PubChem BioAssay
TAR Tat displ – HIV-1 TAR-Tat binding disruption | HIV-1 TAR RNA, Tat peptide displacement FRET; hits give high values | z-score (test concentration not listed) | 0.6% of 100,000 active;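 also: score is relative to mean and SD of negative controls; some compounds called inactive have numbers as strong as hits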
CDC25B-CDK2 inh – human CDC25B-CDK2/CyclinA binding inhibition; HTRF CDC25B-CDK2/CyclinA binding, anti-His/anti-Flag; hits give high values; z-score (test concentration not listed); 0.72% of 94,000 active;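 also: score is relative to mean and SD of negative controls; strong numbers were not always called active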
An asterisk follows results filed as active; · = no result given.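 The calls were made as follows: active = z-score from 3 up in half or more of its runs; inactive = the rest.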

SMILES	TAR Tat displ	CDC25B-CDK2 inh
CN(C)c1ccc(C2CC(c3ccccc3)Nc3ncnn32)cc1 (configuration not stated)	1.8	-1
Cc1cc(C)cc(NC(=O)Nc2c(C)[nH]c(=O)[nH]c2=O)c1	-0.97	-2
COc1ccc(Cc2nnc3n2N=C(c2ccc(Cl)cc2)CS3)cc1	0.94	·
CN(Cc1ccccc1)C(=O)CN1C(=O)c2ccccc2S1(=O)=O	-0.21	-0.09
CCOC(=O)c1sc2[nH]cc(C(=O)OCC)c(=O)c2c1C	0.66	-2.3
O=C(C1CC(=O)N(C2CCCC2)C1)N1CCC(NS(=O)(=O)c2ccc(Cl)cc2)CC1 (configuration not stated)	1.1	·
Cc1cc(NC(=O)CSc2nc3c(cnn3-c3ccc(Cl)cc3)c(=O)[nH]2)no1	1.2	·
COC(=O)c1noc2ncnc(Nc3ccc(Br)cc3F)c12	-0.69	-2
CCC(=O)Nc1nnc(SCc2cc(=O)n3cc(C)sc3n2)s1	0.84	·
O=C(CSc1nc(-c2ccco2)nc2cc(=O)[nH]n12)Nc1ccccc1Cl	-1.7	·
O=c1[nH]cnc2c1cnn2-c1ccccc1	2.3	0.1
O=C(OCc1ccccc1)c1cc2ccccc2oc1=O	·	-2.2
Cc1ccc(-c2cnnc(-n3nc(C)c4c3NC(=O)CC4c3ccccc3OC(C)C)n2)cc1 (configuration not stated)	0.8	-0.5
Cc1ccc(-c2cccc(-n3c(C)ccc3-c3cccc(N)c3)c2)o1	-1.1	0.19
Cc1ccc(C2=NS(=O)(=O)N(C)C(C(=O)Nc3sc4c(c3C(N)=O)CCCC4)=C2)cc1	-1.4	-0.64
O=C(NCCC1=CCCCC1)c1cc2c(s1)-c1ccsc1CC2	0.26	·
O=c1[nH]c(O)c(C=Nc2ccc(Cl)cc2Cl)c(=O)[nH]1	·	-0.45
Cc1nc(-c2ccc(C)c(S(=O)(=O)Nc3cc(Cl)ccc3C)c2)cs1	1.6	·
Clc1ccccc1C1C=C(c2cccs2)Nc2nnnn21 (configuration not stated)	·	-1.6
COc1ccccc1N1CCN(c2ncc3c(n2)CCCC3=O)CC1	1.9	-1.5

An excerpt of these results, with each value named:
Structure: COc1ccc(Cc2nnc3n2N=C(c2ccc(Cl)cc2)CS3)cc1
  TAR Tat displ: 0.94
  CDC25B-CDK2 inh: ·

Structure: CN(Cc1ccccc1)C(=O)CN1C(=O)c2ccccc2S1(=O)=O
  TAR Tat displ: -0.21
  CDC25B-CDK2 inh: -0.09

Structure: CCOC(=O)c1sc2[nH]cc(C(=O)OCC)c(=O)c2c1C
  TAR Tat displ: 0.66
  CDC25B-CDK2 inh: -2.3

Structure: O=C(C1CC(=O)N(C2CCCC2)C1)N1CCC(NS(=O)(=O)c2ccc(Cl)cc2)CC1 (configuration not stated)
  TAR Tat displ: 1.1
  CDC25B-CDK2 inh: ·

(cont.)
SMILES	TAR Tat displ	CDC25B-CDK2 inh
Cc1ccc2nc(-c3ccc(NS(=O)(=O)c4c(C)noc4C)cc3)sc2c1	·	0
CCC(C)C1NC(=O)C(CCNCS(=O)(=O)O)NC(=O)C(NC(=O)C(CCNCS(=O)(=O)O)NC(=O)C(NC(=O)C(CCNCS(=O)(=O)O)NC(=O)CCCCC(C)C)C(C)O)CCNC(=O)C(C(C)O)NC(=O)C(CCNCS(=O)(=O)O)NC(=O)C(CCNCS(=O)(=O)O)NC(=O)C(C(C)CC)NC1=O (configuration not stated)	1.5	·
CCOC(=O)c1cc(S(=O)(=O)Nc2c(C)cc(C)cc2C)cn1C	2.7	-1.1
CCCc1nn2cc(-c3ccc(F)cc3)nc2s1	2.2	-1.7
CCSC(=O)NCc1ccccc1	·	-2.3
c1ccc(-c2nnc(CN3CCCCC3)o2)cc1	1.3	-1.7
CC(=O)c1cccc(Nc2ncnc3ccccc23)c1	·	-0.12
COc1ccc(C2=NN(C(=O)CSCc3ccco3)C(c3cccc(OC)c3OC)C2)cc1 (configuration not stated)	·	0.89
O=c1[nH]c2ccsc2c(=O)n1CCO	·	-1.3
O=C(CCCSc1nc(-c2ccco2)cc(C(F)(F)F)n1)NCC1CCCO1 (configuration not stated)	-5.3	1.3
Cc1ccc(C(=O)COC(=O)CCCC(=O)Nc2ccc(F)cc2)cc1[N+](=O)[O-]	·	-1.6
COc1ccc(CCNC(=O)CC#N)cc1OC	·	0.17
CCC1=Nc2cccc3cccc(c23)N1	·	-0.28
COc1ccc(C2N(c3ccccc3)OC(=O)N2c2ccccc2)cc1 (configuration not stated)	-1.6	-1.8
CC1(C(=O)NC2CCCC2)Cn2c(cc3ccccc32)C(=O)N1Cc1ccco1 (configuration not stated)	0.64	·
CNc1ccc(Br)cc1C(O)c1ccccc1 (configuration not stated)	1.1	-2.1
O=C(NC1CCCCC1)c1cn(-c2cccc(Cl)c2)nn1	1.2	·
CC1(C)Cc2c(c(N3CCOCC3)nc3sc(C(=O)Nc4nccs4)c(N)c23)CO1	-0.78	-3.6
Cc1ccc(/C(O)=C2\C(=O)C(=O)N(c3nnc(C)s3)C2c2ccc(Cl)cc2)cc1 (configuration not stated)	-0.5	-1.5
Clc1ccc(-c2noc(-c3ccc(CN4CCCCC4)cc3)n2)cc1	-0.06	-0.15
Fc1ccc(CN2CCN(C3CCCCCC3)CC2)cc1	·	-0.83
Cc1cc(N=CNOC(=O)c2nn(-c3ccccc3)nc2C)no1	·	-2.3
COCCCN(Cc1ccco1)C(=O)NCc1noc2ccccc12	-1.3	·
Cn1c(Cn2c(=O)sc3ccccc32)nnc1SCc1ccccc1	·	0.52
Clc1nnc(N/N=C/c2ccccc2)c2ccccc12	·	-3.2
C=CCOC(=O)C1=C(C)NC2=C(C(=O)CC(C)(C)C2)C1c1cc(Br)c(O)c(OC)c1 (configuration not stated)	1.9	0.45
Cc1nc2c3cccnc3nn2c(C)c1CCC(=O)NCc1ccc2c(c1)OCO2	-1.3	-1.1
COc1ccc(Nc2nnc(Cc3cccnc3)c3ccccc23)cc1Cl	·	-0.89
CCOC(=O)c1cc(S(=O)(=O)Nc2cc(OC)ccc2OC)[nH]n1	0.82	·
Cc1nnc(N2C(=O)C(=O)/C(=C(/O)c3ccccc3)C2c2ccc(C(C)(C)C)cc2)s1 (configuration not stated)	·	-3.9
O=C(Cn1ncn2nc3c(c2c1=O)CCCC3)Nc1ccc2c(c1)OCCO2	-0.17	·
O=C(Cn1c(-c2cccs2)cc2ccccc21)N1CCN(c2ccccc2)CC1	1.1	·
CC(=O)N1c2ccccc2C(C)CC1(C)C (configuration not stated)	0.51	-2.1
COc1ccc(-c2nc(C#N)c(N3CC(C)CC(C)C3)o2)cc1 (configuration not stated)	0.91	-0.82
CN1CCc2c(n(CC(O)CN3CCCCCC3)c3ccccc23)C1=O (configuration not stated)	·	-2.3
CCc1cccc(C)c1Nc1c(-c2ccc(C)o2)nc2cnccn12	-7.2	-0.94
CCCCCc1nn2c(C)c(-c3ccccc3)nc2s1	-0.05	-1.2
CC(C)OCCCNC(=O)C1CCCN(c2nnc(N3CCCC3=O)s2)C1 (configuration not stated)	1.3	-1.3
Nc1ncnc2c1ncn2CCN1CCOCC1	1.3	1.7
CC(Sc1nc2c(N)ncnc2n1CCOc1ccccc1)C(=O)O (configuration not stated)	0.68	-0.73

Compounds above that contain bromine (three):
SMILES	TAR Tat displ	CDC25B-CDK2 inh
COC(=O)c1noc2ncnc(Nc3ccc(Br)cc3F)c12	-0.69	-2
CNc1ccc(Br)cc1C(O)c1ccccc1 (configuration not stated)	1.1	-2.1
C=CCOC(=O)C1=C(C)NC2=C(C(=O)CC(C)(C)C2)C1c1cc(Br)c(O)c(OC)c1 (configuration not stated)	1.9	0.45

Other compounds.
SMILES	TAR Tat displ	CDC25B-CDK2 inh
CC1=C(c2ccc(C)cc2)S(=O)(=O)N(CC(=O)NCC2CCCO2)C1=O (configuration not stated)	-0.54	·
CCOc1ccc(-n2c(CC)nc3c(cnn3-c3ccc(Cl)cc3)c2=O)cc1	·	-1.6
O=C(Nc1ccc2c(c1)OCCO2)C1CCN(S(=O)(=O)c2ccc(Br)cc2)CC1	1.6	4.6*
CCCCc1ccc(NC(=O)N2CCN(Cc3ccc4c(c3)OCO4)CC2)c(C)c1	·	-2.4
O=C1C[C@@H](c2ccc(O)c(O)c2)Oc2cc(O[C@H]3O[C@@H](CO)[C@H](O)[C@@H](O)[C@@H]3O)cc(O)c21	3.2	·
COc1ccc2c(=O)ccoc2c1	0	·
Cc1cc(C)c(-c2c(Nc3ccc(Cl)cc3)c(=O)c2=O)cc1C	0.92	·
Cc1cccc(NS(=O)(=O)c2ccc3c(c2)[C@H]2C=CC[C@H]2[C@@H](c2ccc(F)cc2)N3)c1	·	-0.93
COc1ccc(-c2coc3cc(O)ccc3c2=O)c(OC)c1	2.7	·
CCCNC(=O)N1CCc2cc(S(=O)(=O)N3CCc4ccccc4C3)ccc21	0.3	·
COc1ccc(N(C(=O)c2ccco2)S(=O)(=O)c2cccs2)cc1	-1.7	-0.28
Brc1ccc(Nc2nc3ccccc3n3cnnc23)cc1	0.47	-0.75
O=C(CSCC(=O)c1ccccc1)c1ccccc1	·	-0.86
CC(=O)Nc1nc(CC(=O)O)cs1	1.4	-2.3
CCOC(=O)C1(N(CC)CC)Sc2cc(C)ccc2NC1=O (configuration not stated)	·	-0.22
Cc1c(OC(=O)c2ccccc2)ccc2c(C(F)(F)F)cc(=O)oc12	·	-2.3
Cc1oc2ncnc(NCc3ccc4c(c3)OCO4)c2c1C(=O)NCc1ccc2c(c1)OCO2	0.23	-1.7
COC(=O)c1c(-c2ccc(F)cc2)noc1N	1.2	-0.93
CC1CCCN(C(=O)CCS(=O)(=O)c2cc3c(cc2Cl)NC(=O)CO3)C1 (configuration not stated)	3	·
CSCCC(Nc1ncnc2sc3c(c12)CCCC3)C(=O)O (configuration not stated)	·	-0.11
CC1(C)CC(=O)C2=C(C1)Nc1ccccc1N(C(=O)NC1CCCC1)C2c1ccco1 (configuration not stated)	0.46	·
CC(=O)N1CCC(N(CCCN2CCC(C)CC2)C(=O)Nc2ccc3c(c2)OCCO3)CC1	-0.96	·
CCc1ccc(-c2[nH]nc3nc(-c4ccccc4O)cc(C(=O)O)c23)cc1	2.7	·
CCOC(=O)c1c(NC(=S)Nc2cc(C)ccn2)sc(C)c1C	·	0.06
Cc1noc(C)c1S(=O)(=O)Nc1ccc2c(c1)OCCO2	·	-0.96
Cc1nn(S(=O)(=O)c2ccc(C(C)(C)C)cc2)c(C)c1S(=O)(=O)N1CCOCC1	1.4	·
Cc1nc(-c2ccc(C(F)(F)F)cn2)sc1C(=O)NN	·	-1.6
O=C(Nc1ccc(Cl)cc1)N1CCC(CN2CCc3ccccc3C2)CC1	1.2	·
O=c1[nH]nc(-c2ccc(Br)cc2)o1	1.1	-0.97
Cc1ccc(S(=O)(=O)n2nc(C)c(S(=O)(=O)N(C)c3ccccc3)c2C)cc1	0.52	·
CCc1nnc(SCC(=O)Nc2ccccc2F)c2cc3sccc3n12	4.4	·
CCC(C)N1C(=O)c2ccc(-c3ccco3)n2CC1(C)C(=O)NC1CCCCC1 (configuration not stated)	-0.14	·
CN(CC(=O)NC1CCCC1)S(=O)(=O)c1cc(Br)cnc1N	-0.05	-1.2
CCCCC(=O)Nc1nn2c(CC(C)C)nnc2s1	-0.29	-1.1
Cn1cccc1Cc1nnc(SCC(=O)Nc2ccc(F)cc2F)n1-c1ccc(F)cc1	-1.1	0.12
CC1=C(c2ccc(F)cc2)S(=O)(=O)NC1=O	-0.34	-0.48
CC(C)(CC(=O)O)CC(=O)N1CCCN(c2c(Cl)cncc2Cl)CC1	·	-2.2
O=C(CCc1nnc2ccc(N3CCCCC3)nn12)N1CCN(c2ccccc2)CC1	-0.04	·
CCC(C(=O)NCCCN1CC(C)CC(C)C1)n1ncn2c(cc3occc32)c1=O (configuration not stated)	0.91	-1.6
CCCCCC(C)(C)NC(=O)CN1CCOCC1	3	-1.8
CCOc1c(Nc2ccc(F)cc2C)c(=O)c1=O	-0.13	·
COc1cccc(N2C(=O)CC(Nc3ccc(N4CCOCC4)cc3)C2=O)c1 (configuration not stated)	1.2	-1.3
O=C(c1cccc(Br)c1)N1CCc2cc3ccccc3nc21	-0.92	-2.2
COC(=O)c1sc2ccccc2c1S(=O)(=O)Nc1cc(OC)cc(OC)c1	-0.88	·
CCOC(=O)N1CCC(n2c(SCC(=O)Nc3nccs3)nc3ccsc3c2=O)CC1	1.4	·
Cn1/c(=N/N=c2\oc3ccccc3n2C)oc2ccccc21	·	-2.1
CC1CCCCC1NC(=O)CCCn1ncn2c(cc3occc32)c1=O (configuration not stated)	2.1	-1.7
COC(=O)C1=NOC2(CC(=O)N(c3ccc(F)cc3)C2=O)C1 (configuration not stated)	0.21	-1.4
CCN(CC)C(=O)Cn1c(=O)n(CC2CCC(C(=O)NC)CC2)c(=O)c2sccc21 (configuration not stated)	1.8	·
CC(C)CNc1nc2c(c(=O)[nH]c(=O)n2C)n1C(C)C	-0.81	-1.8
Cc1c2cnn(-c3ccccc3)c(=O)c2c(C)n1CCCC(=O)Nc1ccc2c(c1)OCO2	3	-1.8
Cc1[nH]nc(-n2cnnc2)c1NS(=O)(=O)c1ccccc1Cl	0.57	-2.7
CC(=O)N1N=C(CSc2nnc(-c3ccccc3)n2-c2ccccc2)OC1c1ccco1 (configuration not stated)	-0.81	·
O=C1CCCN1c1ccc(S(=O)(=O)NCC2CCCO2)cc1 (configuration not stated)	-0.62	·
CS(=O)(=O)c1ccc(-c2ccc(NS(=O)(=O)c3ccc(F)cc3)cc2)nn1	-0.75	·
CCOC(=O)COc1ccccc1C1Oc2ccccc2C2CC(c3cccs3)=NN21 (configuration not stated)	·	-0.31
COC(=O)c1cc(-c2ccc(OC)c(OC)c2)c2c(=O)[nH]c(=O)n(C)c2n1	2.7	-1.8

Reprinted at random: 3 entries already listed
SMILES	TAR Tat displ	CDC25B-CDK2 inh
CC(=O)N1N=C(CSc2nnc(-c3ccccc3)n2-c2ccccc2)OC1c1ccco1 (configuration not stated)	-0.81	·
CS(=O)(=O)c1ccc(-c2ccc(NS(=O)(=O)c3ccc(F)cc3)cc2)nn1	-0.75	·
COc1cccc(N2C(=O)CC(Nc3ccc(N4CCOCC4)cc3)C2=O)c1 (configuration not stated)	1.2	-1.3
